# Screens from PubChem BioAssay.
# Ecoli rRNA inh = selective bacterial rRNA inhibition in E. coli | GFP signal change (wild-type ribosome), % (test concentration not listed) | E. coli WT GFP vs humanized-ribosome RFP mutants, fluorescence, 24 h; hits give low values; DMSO median 0, no signal -100 | 1.6% of 350,000 active | AID 720706;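 active means significant combined selectivity score with lowered wild-type GFP, culture density cut under 30%, mutant RFP and density less affected; inactive means any of these conditions unmet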; further: one replicate is shown; some compounds called inactive have numbers as strong as hits
# FGF22 binding = binders of recombinant human FGF22 by thermal shift; Q9HCT0; SYPRO orange fluorescence; percent of sucrose octasulfate shift, DMSO zero; 1.5% of 340,000 active; calls only at 9.99 µM;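 active means melting point raised past a set limit in the mean and every replicate; three in four hits are not shown here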
# Target sequence (Q9HCT0 whole entry, looked up): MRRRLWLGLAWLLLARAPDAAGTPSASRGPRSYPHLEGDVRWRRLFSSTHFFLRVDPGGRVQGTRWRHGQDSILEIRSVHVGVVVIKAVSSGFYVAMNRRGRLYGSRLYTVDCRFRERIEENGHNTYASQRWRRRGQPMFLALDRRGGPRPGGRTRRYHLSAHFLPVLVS
# Ecoli rRNA inh OD600 = further read-out of Ecoli rRNA inh, marked with its call; OD600 change, %; measured here: OD600 growth;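 optical density of the mix in the first replicate; 0 = DMSO median and -100 = no signal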
# Ecoli rRNA inh RFP = second read-out of Ecoli rRNA inh, no call of its own (marks repeat the call); RFP signal change, %; measured here: RFP humanized mutant strains;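 first replicate; 0 = DMSO median and -100 = no signal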
# An asterisk follows results filed as active; i = inactive.
# Results follow in this order: Ecoli rRNA inh, Ecoli rRNA inh OD600, Ecoli rRNA inh RFP, FGF22 binding
CCC(=O)Nc1ccc2c(c1)OC[C@H](C)N(C(=O)C1CCC1)C[C@@H](C)[C@@H](OC)CN(C)C2=O
  0.0, -2.5, -0.5, i
O=C(c1ccccn1)N1C[C@H]2[C@@H](c3ccccc31)[C@H](CO)N2C(=O)Nc1ccccc1
  5.3, 10.9, -0.7, i
Cc1noc(C)c1NC(=O)Nc1cccc2c1O[C@@H](CN(C)S(=O)(=O)c1cccs1)[C@@H](C)CN([C@@H](C)CO)C2=O
  -0.5, 3.6, -1.4, i
C/C=C/c1ccc2c(c1)O[C@@H](CN(C)C(=O)Cc1ccccn1)[C@@H](C)CN([C@@H](C)CO)S2(=O)=O
  -1.1, -2.9, 0.9, i
CC(C)NC(=O)N(C)C[C@@H]1Oc2ccc(NC(=O)CCN3CCOCC3)cc2CC(=O)N([C@@H](C)CO)C[C@H]1C
  9.6, 5.3, 1.8, i
COCCCn1cnn2c(=O)c3ccccc3nc2c1=O
  2.9, 6.6, -2.3, i
COc1ccc(S(=O)(=O)N(C)C[C@H]2Oc3ccc(NC(=O)Nc4c(C)noc4C)cc3CC(=O)N([C@H](C)CO)C[C@H]2C)cc1
  -2.3, 0.2, -4.0, i
CO[C@@H]1CC[C@H]2CCOc3ccc(C#N)cc3C(=O)N(C)C[C@@H](OC)[C@H](C)C(=O)N(C)C[C@@H]1O2
  1.7, 13.2, -3.9, i
O=C(O)C[C@H]1C[C@H]2c3cc(NC(=O)NC4CCCCC4)ccc3O[C@H]2[C@H](CO)O1
  4.0, 6.4, -2.0, i
COc1ccc(NC(=O)Nc2ccc3c(c2)C(=O)N([C@@H](C)CO)C[C@@H](C)[C@@H](CN(C)C(=O)Nc2c(C)noc2C)OCCCC[C@@H](C)O3)cc1
  -0.1, -3.0, 0.7, i
O=C(C[C@@H]1C[C@H]2c3cc(NC(=O)Nc4ccccc4F)ccc3O[C@H]2[C@H](CO)O1)NC1CCCCC1
  -13.2, -23.8, -1.1, i
C[C@H]1CN([C@@H](C)CO)C(=O)c2cc(NC(=O)Nc3cccc4ccccc34)ccc2O[C@@H]1CN(C)Cc1ccc2c(c1)OCO2
  -3.2, -16.6, 8.0, i
O=C(C[C@H]1CC[C@@H]2[C@H](COC[C@@H](O)CN2Cc2ccc(F)cc2)O1)NCc1ccncn1
  -4.2, -1.9, -0.9, i
C[C@@H]1CN([C@H](C)CO)S(=O)(=O)c2ccc(C#Cc3cccc(F)c3)cc2O[C@@H]1CN(C)S(=O)(=O)c1cn(C)cn1
  1.1, 0.0, 3.3, i
COc1ccc(S(=O)(=O)N(C)C[C@@H]2Oc3ccc(NC(=O)Nc4ccc(C(F)(F)F)cc4)cc3CC(=O)N([C@@H](C)CO)C[C@H]2C)cc1
  0.8, -8.7, -0.7, i
COc1cccc(S(=O)(=O)N[C@@H]2CC[C@@H](CC(=O)NCc3ccc(Cl)cc3)O[C@H]2CO)c1
  -7.6, -13.1, 1.1, i
Cc1ccccc1S(=O)(=O)NCC[C@@H]1CC[C@H](NC(=O)Nc2cccc(F)c2)[C@H](CO)O1
  -5.8, -16.0, 1.7, i
COc1ccc(NC(=O)N(C)C[C@H]2Oc3c(NC(=O)C4CCOCC4)cccc3C(=O)N([C@H](C)CO)C[C@H]2C)cc1
  2.0, 9.3, -2.6, i
CC(C)NC(=O)N(C)C[C@@H]1OCCCC[C@@H](C)Oc2ccc(NS(=O)(=O)c3ccc(Cl)cc3)cc2C(=O)N([C@H](C)CO)C[C@H]1C
  -1.4, -3.2, 0.4, i
O=C(C[C@H]1CC[C@H](NC(=O)C2CCC2)[C@@H](CO)O1)NCc1ccccc1Cl
  0.2, 2.7, -0.4, i
C[C@@H]1CCCCO[C@@H](CN(C)Cc2ccc(C(F)(F)F)cc2)[C@@H](C)CN([C@@H](C)CO)C(=O)c2cc(NS(=O)(=O)c3ccc(F)cc3)ccc2O1
  -0.2, 0.6, -0.2, i
O=C(C[C@@H]1C[C@H]2c3cc(NC(=O)C4CCC4)ccc3O[C@H]2[C@H](CO)O1)NCC1CC1
  -0.2, 11.3, -2.2, i
O=C(C[C@@H]1C=C[C@@H](NC(=O)CC2CC2)[C@H](CO)O1)NCc1ccc(-c2ccccc2)cc1
  -8.2, -2.0, 2.1, i
C[C@@H]1CCCCO[C@@H](CN(C)C(=O)NC2CCCCC2)[C@@H](C)CN([C@@H](C)CO)C(=O)c2cc(NS(=O)(=O)c3ccc(Cl)cc3)ccc2O1
  1.2, -7.6, -0.8, i
C[C@H]1CN([C@@H](C)CO)C(=O)c2cccc(NS(=O)(=O)c3ccc(F)cc3)c2O[C@@H]1CN(C)C(=O)Nc1ccc(C(F)(F)F)cc1
  -2.8, 4.0, -0.8, i
Cc1cc(O)cc(=O)n1-c1cccc(C(F)(F)F)c1
  10.5, 11.6, -0.1, i
CCC(=O)Nc1ccc2c(c1)C(=O)N(C)C[C@@H](OC)[C@H](C)CN(C(=O)c1ccc(F)cc1)[C@@H](C)CO2
  -2.8, 2.9, -1.8, i
C[C@@H]1CCCCO[C@@H](CN(C)Cc2ccc(C(F)(F)F)cc2)[C@@H](C)CN([C@H](C)CO)C(=O)c2cc(NC(=O)c3ccccc3)ccc2O1
  -1.5, 4.0, 0.0, i
O=C(CC1CC1)N1CC2(C1)[C@H](c1ccccc1)[C@@H](CO)N2CC1CCOCC1
  4.1, -6.4, -1.8, i
N#C[C@H]1[C@H](c2ccccc2)[C@H](CO)N1C(=O)c1ccccc1F
  1.4, 4.4, -4.4, i
C[C@@H]1CN([C@@H](C)CO)C(=O)c2cc(NC(=O)Nc3ccc(F)cc3)ccc2O[C@@H](C)CCCCO[C@@H]1CN(C)CC1CCCCC1
  -4.0, -17.9, 7.4, i
CO[C@H]1CN(C)C(=O)c2ccc(NC(=O)Nc3cccc(F)c3)cc2OC[C@H](C)N(C)C[C@H]1C
  -0.4, -4.7, 1.1, i
COc1ccc(NC(=O)N(C)C[C@H]2OCCCC[C@H](C)Oc3ccc(NC(=O)Cc4ccccc4)cc3C(=O)N([C@H](C)CO)C[C@H]2C)cc1
  2.0, -1.9, 2.2, i
C[C@H]1CN([C@@H](C)CO)C(=O)c2cccc(NC(=O)Nc3ccc(F)cc3)c2O[C@@H]1CN(C)Cc1ccccc1
  -8.6, -12.4, 1.4, i
C[C@@H]1CN([C@H](C)CO)S(=O)(=O)c2ccc(-c3ccccc3)cc2O[C@@H]1CN(C)C(=O)c1ccc2c(c1)OCO2
  -13.3, -9.5, 2.2, i
CN1CCN(C(=O)C[C@@H]2CC[C@H](NC(=O)c3ccc4c(c3)OCO4)[C@H](CO)O2)CC1
  0.8, -2.9, -0.5, i
CC(C)NC(=O)N(C)C[C@@H]1Oc2ccc(NC(=O)Cc3ccccc3)cc2C(=O)N([C@H](C)CO)C[C@H]1C
  4.9, 11.0, 1.1, i
C[C@H](CO)N1C[C@H](C)[C@H](CN(C)Cc2ccccc2)Oc2ccc(N(C)C)cc2C1=O
  4.8, 3.1, 2.9, i
CCC(=O)Nc1ccc2c(c1)C(=O)N(C)C[C@H](OC)[C@@H](C)CN(C(C)=O)[C@H](C)CO2
  2.1, 5.3, -0.9, i
C[C@H](CO)N1C[C@H](C)[C@H](CN(C)C(=O)CCCN(C)C)OCCCC[C@H](C)Oc2ccc(NC(=O)c3ccccc3)cc2C1=O
  1.2, 4.0, -1.4, i

# Limited to Ecoli rRNA inh, for four of the compounds above:
smiles	Ecoli rRNA inh
CCC(=O)Nc1ccc2c(c1)C(=O)N(C)C[C@H](OC)[C@@H](C)CN(C(C)=O)[C@H](C)CO2	2.1
C[C@H]1CN([C@@H](C)CO)C(=O)c2cccc(NC(=O)Nc3ccc(F)cc3)c2O[C@@H]1CN(C)Cc1ccccc1	-8.6
C[C@H](CO)N1C[C@H](C)[C@H](CN(C)C(=O)CCCN(C)C)OCCCC[C@H](C)Oc2ccc(NC(=O)c3ccccc3)cc2C1=O	1.2
CO[C@H]1CN(C)C(=O)c2ccc(NC(=O)Nc3cccc(F)c3)cc2OC[C@H](C)N(C)C[C@H]1C	-0.4

# (continued)
# Results follow in this order: Ecoli rRNA inh, Ecoli rRNA inh OD600, Ecoli rRNA inh RFP, FGF22 binding
O=C([C@@H]1[C@@H](CO)[C@@H]2Cn3c(cccc3=O)[C@@H]2N1Cc1ccccc1Cl)N1CCOCC1
  2.2, 0.8, -3.5, i
C[C@@H]1CN([C@@H](C)CO)C(=O)c2cc(NC(=O)CCC(F)(F)F)ccc2O[C@@H]1CN(C)Cc1ccncc1
  2.2, 16.8, -1.0, i
COc1cccc(C#Cc2cnc3c(c2)C(=O)N([C@H](C)CO)C[C@H](C)[C@H](CN(C)C(=O)C2CCCCC2)O3)c1
  -1.3, -41.2, 26.1, i
COc1ccc(NC(=O)N2CCCCN3[C@@H](CO)[C@H](c4ccc(C#Cc5ccccn5)cc4)[C@@H]3C2)cc1
  0.6, 17.1, 1.3, i
CC(C)NC(=O)N1CCCCN2[C@@H](CO)[C@H](c3ccc(C#C[C@H](C)O)cc3)[C@@H]2C1
  5.3, 12.9, 2.4, i
COCC(=O)N1C[C@@H](C)[C@@H](OC)CN(C)C(=O)c2ccc(NC(=O)c3ccccc3)cc2OC[C@@H]1C
  2.2, -1.9, 0.5, i
C[C@@H]1CCCCO[C@@H](CN(C)Cc2ccc(C(F)(F)F)cc2)[C@@H](C)CN([C@H](C)CO)C(=O)c2cc(NS(=O)(=O)c3ccc(F)cc3)ccc2O1
  6.2, 10.8, -1.9, i
COc1ccc(NC(=O)N[C@H]2C=C[C@H](CC(=O)NCc3ccccn3)O[C@H]2CO)cc1
  4.9, 14.7, -0.7, i
COc1ccc(S(=O)(=O)Nc2ccc3c(c2)CC(=O)N([C@H](C)CO)C[C@H](C)[C@H](CN(C)Cc2ccc(C(=O)O)cc2)O3)cc1
  2.4, 5.6, -1.3, i
CO[C@H]1CN(C)C(=O)c2ccc(NC(=O)C3CC3)cc2OC[C@H](C)N(C(=O)c2cnccn2)C[C@H]1C
  1.3, -2.0, -0.9, i
COc1ccc(NC(=O)N(C)C[C@@H]2OCCCC[C@H](C)Oc3ccc(NC(=O)Nc4ccc5c(c4)OCO5)cc3C(=O)N([C@@H](C)CO)C[C@H]2C)cc1
  -2.4, -2.3, -4.2, i
CCCC(=O)Nc1ccc2c(c1)OC[C@@H](C)N(C(=O)CN(C)C)C[C@H](C)[C@@H](OC)CN(C)C2=O
  4.4, 1.7, 1.2, i
Cc1noc(C)c1S(=O)(=O)Nc1ccc2c(c1)CC(=O)N([C@@H](C)CO)C[C@H](C)[C@H](CN(C)Cc1ccc(Oc3ccccc3)cc1)O2
  -0.4, -7.5, 2.0, i
C[C@H](NC(=O)C[C@@H]1C=C[C@H](NC(=O)CN2CCOCC2)[C@@H](CO)O1)c1ccccc1
  3.8, 3.3, 0.8, i
COc1cccc(S(=O)(=O)Nc2ccc3c(c2)C(=O)N(C)[C@H]2CC[C@H](CC(=O)O)O[C@@H]2CO3)c1
  3.1, 9.3, 0.8, i
O=C(C[C@@H]1CC[C@@H]2[C@H](COC[C@H](O)CN2C(=O)c2ccccc2)O1)N1CCc2ccccc2C1
  1.3, 12.8, -0.4, i
CO[C@@H]1CN(C)C(=O)c2ccc(NC(=O)Nc3ccccc3F)cc2OC[C@@H](C)N(CCC(F)(F)F)C[C@H]1C
  -1.1, 0.9, 3.0, i
C[C@@H]1CCCCO[C@H](CN(C)C(=O)Cc2ccccc2)[C@H](C)CN([C@@H](C)CO)C(=O)c2cc(NS(=O)(=O)c3cn(C)cn3)ccc2O1
  -3.7, 0.3, -1.1, i
C[C@@H](O)C#Cc1ccc([C@H]2[C@@H](CO)N3CCCCN(C(=O)Nc4ccccc4)C[C@H]23)cc1
  7.0, 0.4, 1.5, i
Cc1ccc(-c2cnc3c(c2)C(=O)N([C@H](C)CO)C[C@H](C)[C@@H](CN(C)C(=O)c2cccnc2)O3)cc1
  -0.3, 1.7, -0.8, i
O=C(N[C@@H]1CC[C@@H](CCNS(=O)(=O)c2ccc(F)cc2)O[C@H]1CO)c1cccnc1
  0.5, 0.1, -2.1, i
COCC(=O)Nc1ccc2c(c1)[C@H]1C[C@H](CC(=O)NCc3ccccc3)O[C@@H](CO)[C@H]1O2
  1.0, 2.2, -1.0, i
Cc1noc(C)c1NC(=O)Nc1ccc2c(c1)C(=O)N([C@@H](C)CO)C[C@H](C)[C@@H](CN(C)Cc1ccc(C(=O)O)cc1)O2
  1.2, 4.8, 1.7, i
Cc1noc(C)c1NC(=O)Nc1ccc2c(c1)CC(=O)N([C@H](C)CO)C[C@@H](C)[C@H](CN(C)Cc1ccc(C(F)(F)F)cc1)O2
  -5.7, -17.8, 0.5, i
O=C(c1cccnc1)N1C[C@H]2[C@@H](c3ccccc31)[C@H](CO)N2C(=O)Nc1cccc(F)c1
  1.1, 12.8, -1.7, i
CCCNC(=O)N[C@H]1CC[C@@H](CCn2cc(C3CCCCC3)nn2)O[C@H]1CO
  -1.6, -5.8, -1.3, i
C[C@@H]1CN([C@@H](C)CO)C(=O)Cc2cc(NC(=O)NC3CCCCC3)ccc2O[C@H]1CN(C)CC1CC1
  -0.9, 8.9, -1.2, i
Cc1ccccc1-c1ccc([C@H]2[C@H](CO)N3CCCCN(C(=O)c4cccnc4)C[C@@H]23)cc1
  0.4, -4.2, -0.4, i
CC(C)(O)C#Cc1ccc([C@H]2[C@@H](CO)N3CCCCN(C(=O)c4cccnc4)C[C@H]23)cc1
  6.2, 8.9, 0.7, i

# Only part of the results is shown; rates above refer to the full screens.
